BJeLR viability = MLPCN primary cell-based screen for lethality selective to Ras in HRASV12 cells | BJeLR (HRASV12) viability, CellTiter-Glo ATP luminescence, 48 h; reference of the scale not given here | inhibition, % (test concentration not listed) | actives 0.17% (n = 300,000);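 active = replicate mean above 50%; inconclusive = above 50% but judged a plate artefact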;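 note: 50 nL library stock added to about 25 µL; numbers are from one replicate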
Sa RN4220 lethal = growth inhibition of S. aureus RN4220, primary screen, OD600 | inhibition, % (test concentration not listed) | 16 h | AID 1259311, 2017 | actives 0.33% (n = 330,000);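 active = z-score of -3 or lower and OD600 up to 0.18 on both plates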;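 note: plate controls were untreated cells for no effect and reference antibiotic for full effect; stock transfer was 100 nL into about 80 µL; one replicate is shown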
Autofluor counter = counter-screen for toxin protease inhibitors: compound fluorescence; compound autofluorescence counterscreen, microsphere flow cytometry; stronger effect = higher value; fluorescence intensity (no concentration beside the values); actives 3.1% (n = 360,000); AID 624483;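 active = at least 3 SD above the mean of all compounds, about 16000 in these data; inconclusive = too few beads counted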;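 note: 100 nL of 1 mM stock went into each well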
ugtP null kill = growth inhibition of ugtP-null S. aureus, primary screen, RN4220 ugtP deletion, OD600; 16 h; some inactives read as strong as hits; growth inhibition, % (test concentration not listed); actives 0.54% (n = 330,000);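 active = z-score under -3 and OD600 up to 0.15 on both plates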;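 note: plate controls were untreated wells for no effect and antibiotic for full effect; wells of about 80 µL received 100 nL stock; the first replicate is given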
Mtb hypoxia rep = PubChem AID 1159583; actives 0.1% (n = 300,000); fluorescence inhibition, % (test concentration not listed); M. tuberculosis hypoxia-regulated fluorescent reporter, fluorescence;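 active = 35 to 45% if threefold the growth effect, above 45% if 1.5-fold the growth effect; inactive = the rest, general growth blockers included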;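 note: wells of about 50 µL received 100 nL stock; 0% = vehicle wells and 100% = reference inhibitor wells; whole bacteria with a GFP reporter of the hypoxia response; strong numbers were not always called active; many hits fall short of the cut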
PrP 5UTR inh = inhibition of PrP 5' UTR reporter expression; cell-based PrP 5' UTR mRNA reporter, plate reader; inhibition, % (test concentration not listed); actives 0.35% (n = 340,000);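 active = every replicate at 50% or more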;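 note: 0 = median of the neutral control wells; tested in H4 reporter cells; numbers are from one replicate; inactives centre near -14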
Mtb hypoxia rep growth = further read-out of Mtb hypoxia rep, marked with its call; growth inhibition, %; measured here: M. tuberculosis growth (absorbance);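 0% = vehicle and 100% = reference antibiotic; read after six days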
Active calls of the source: *; ? = inconclusive; . = not tested or not shown; & = joins results of further samples.

The line under a structure holds: BJeLR viability	Sa RN4220 lethal	Autofluor counter	ugtP null kill	Mtb hypoxia rep	Mtb hypoxia rep growth	PrP 5UTR inh
O=C(NCc1ccc(Cl)cc1)c1ncn[nH]1
 : 4	6.8	4287	14	7	0	-37
Cc1cc2c(c(=O)n1CCN(C)C)C(c1ccc(Br)cc1)C(C#N)=C(N)O2 (stereo not drawn)
 : 1	-15	3269	-3	9	8	-14
O=C(CNS(=O)(=O)c1cccc2nsnc12)NC1CCCCC1
 : -1	1.9	4643	-5	1	11	-9
N#Cc1nc(-c2ccc(F)cc2)oc1N1CCN(C(=O)c2ccco2)CC1
 : -1	-1.7	5866	-7	-3	4	-3
O=C(O)c1ccc2ccc3ccccc3c2c1
 : 0	7.4	.	-11	9	-4	.
COc1ccc(CCNC(=O)C(=O)NCC2OCCN2S(=O)(=O)c2cc(F)ccc2F)cc1 (stereo not drawn)
 : 9	-10	6925	4	7	5	-20
Cc1cccc(-n2nnc(C(=O)NCc3ccccc3)c2N)c1
 : 4	2.7	3807	-4	11	16	-36
CCCCOc1ccc(-c2nnn(CC(=O)NCCc3c[nH]c4ccccc34)n2)cc1
 : 5	-2.5	23887*	-15	-5	7	-43
CN(CC(=O)NC(=O)NC1CCCCC1)CC(=O)Nc1ccc(Cl)cc1
 : .	1.7	3517	-4	-3	5	-12
O=C1c2ccccc2C(Nc2ccc3c(c2)OCCO3)N1Cc1ccc2c(c1)OCO2 (stereo not drawn)
 : -9	6.1	4231	8	.	.	16
O=C(Cn1cnc(S(=O)(=O)N2CCCCC2)c1)N1CCN(c2ccc([N+](=O)[O-])cc2)CC1
 : -1	-0.2	5459	2	-1	-9	-17
CCCC(=O)Nc1cc(-c2nc3ncccc3o2)ccc1C
 : 2	0.2	2636	11	25	8	8
Cc1cccc(NC(=O)CSCC(=O)Nc2ccc(N3CCOCC3)cc2N2CCOCC2)c1
 : .	0.5	3522	4	6	7	-20
CC(=O)c1cnc(Nc2ccccc2)s1
 : -7	4.6	3071	9	25	-30	-14
S=C(NCCCN1CCOCC1)N(Cc1ccccc1)Cc1ccccc1
 : 9	4.0	3811	8	0	2	-18
Cc1ccc(NC(=S)N2CCN(C(=O)C3CCCO3)CC2)cc1 (stereo not drawn)
 : 5	0.8	1931	-1	0	-1	5
CN(C)c1ccc(NC(=O)Nc2ccc3snnc3c2)cc1
 : -3	-6.4	2306	-12	17	11	-55
Cn1cc([N+](=O)[O-])c(C(=O)NN=Cc2ccncc2)n1
 : .	1.4	.	5	1	2	.
COc1ccc(C(=O)Cn2nnc(-c3ccccc3NC(=O)C(F)(F)F)n2)cc1
 : 4	0.7	4025	-3	.	.	-18
CCOC(=O)c1cnc2ccc(OC)cc2c1Nc1ccc2c(c1)OCCO2
 : 3	3.9	2255	-21	.	.	6
O=C(C[n+]1ccccc1)c1ccc(-c2ccccc2)cc1
 : 9	4.0	3207	18	-2	7	-18
Cc1nc2nc(SCC(=O)N3CCOCC3)nn2c(C)c1Cc1c(F)cccc1Cl
 : 3	-1.0	3032	3	10	5	-3
C#CCn1c(=NC(=O)c2ccc(S(=O)(=O)N3CCCc4ccccc43)cc2)sc2cc(S(N)(=O)=O)ccc21
 : 5	4.2	2475	-26	3	4	-2
O=C(NC12CC3CC(CC(C3)C1)C2)C1CC(=O)N(c2ccccc2)C1 (stereo not drawn)
 : -8	-4.6	2437	-2	.	.	-21
CC1CCC(Nc2nnnn2-c2ccccc2)CC1 (stereo not drawn)
 : -3	1.9	7782	-4	13	16	-47
CC(C)(C)C(=O)CNS(=O)(=O)c1ccc(S(=O)(=O)NC2CC2)cc1
 : -1	12	3406	2	-1	5	-15
CCN(CC)C(=O)[C@H]1CC(CC(=O)NCC23CC4CC(CC(C4)C2)C3)C(=O)N2CCc3c([nH]c4ccc(OC)cc34)[C@]12C (stereo partly drawn)
 : .	-1.5	3966	-12	-9	8	-17
COc1ccccc1-c1cn[nH]c1-c1ccc(OCC(=O)NN)cc1O
 : -3	0.7	3895	-4	9	-4	-11
COc1ccc(-n2c(=S)[nH]c3ccccc3c2=S)cc1
 : -10	1.0	3188	-22	6	6	10
COc1cc(CN(C)Cc2cc(=O)n3ccsc3n2)ccc1OC(F)F
 : 19	3.5	4263	-3	-8	2	-3
CCOc1ccccc1C(=O)OCC(=O)NCc1ccc2c(c1)OCO2
 : .	1.8	4502	1	7	8	-27
CCOc1cc(/C=C/c2nc3ccccc3c(=O)[nH]2)ccc1O
 : 5	3.3	3915	3	6	3	-34
CCOc1ccccc1N1CCN(C(=O)C2CSC3(C)CCC(=O)N23)CC1 (stereo not drawn)
 : .	-2.0	4968	0	7	5	-17
COc1ccccc1NC(=O)CSc1nnc(C)s1
 : -20	4.6	5327	13	-2	-9	-14
C=CCOC(=O)C1=C(C)N(C)C(=O)NC1c1cc2c(cc1Br)OCO2 (stereo not drawn)
 : 8	8.8	3296	-6	17	7	-14
COc1ccc(N2CCN(c3oc(-c4ccc(OC)c(OC)c4)nc3C#N)CC2)cc1
 : 1	3.1	2902	-18	5	6	-6
Cc1csc(Nc2nc(N)c(C(=O)Nc3ccccc3)o2)n1
 : 18	3.7	3517	-4	-2	7	-52
CC(=O)CC(O)CC(=O)C1OC(=O)CCC=CCc2ccccc21 (stereo not drawn)
 : .	3.0&4.0	.	1&0	13&-1	12&6	.
CCOC(=O)c1c(C)nc(-c2ccccc2)nc1N
 : 9	2.7	9671	-7	1	6	-67
CCC(=O)c1cn(CC(=O)Nc2ccc(OC)cc2)c2ccccc12
 : -7	.	3140	.	.	.	-22
COc1cc(/C=C2\NC(=O)NC2=O)cc(Br)c1OC
 : -6	0.8	3505	0	13	-1	-10
CCN(C(=O)COC(=O)c1cccs1)c1c(N)n(Cc2ccccc2)c(=O)[nH]c1=O
 : 9	2.9	3857	4	-16	-10	-21
COc1ccccc1C(=O)NCCC(=O)N(Cc1ccco1)Cc1cccs1
 : 6	3.1	4098	-2	0	-2	-5
O=C1CCC(=O)O1
 : .	6.1	4102	13	3	1	-16
COc1ccc2sc(-c3ccccc3OC)c(C#Cc3cncn3C)c2c1
 : .	66	3768	76	1	11	-3
COC(=O)c1ccccc1NC(=S)NC(=O)c1ccc2ccccc2c1
 : 1	-2.5	2414	-1	-5	4	-11
COc1nc(-c2ccccc2)ccc1-c1noc(-c2cccnc2)n1
 : 3	3.0	23960*	-27	-11	-4	-2
CCCCn1c(N)c(N(CCOC)C(=O)C2CCN(S(=O)(=O)c3ccc(C)c(C)c3)CC2)c(=O)[nH]c1=O
 : 13	5.3	6022	3	-3	-7	-17
COc1ccccc1CNC(=O)c1cc2ccccc2o1
 : -5	6.6	2940	-3	3	13	-1
Cc1ccc(/C=N/Nc2nnc(Cl)c3ccccc23)cc1
 : 7	.	2510	.	.	.	-72
C#CCOCCOCCOCCNc1nc(N2CCOCC2)nc(N2CCN(C(=O)C(C(C)CC)n3cc(C(N)Cc4ccc(O)cc4)nn3)CC2)n1 (stereo not drawn)
 : .	1.7	.	-1	3	0	.
CCOC(=O)c1ccc(N2Cc3ccccc3C2=NC(=O)c2cccs2)cc1
 : .	-4.0	2086	-9	-1	1	-80
CC1CCN(CCCNS(=O)(=O)c2ccc3c(c2)CCN3C(=O)C2CC2)CC1
 : -2	2.3	5172	4	-7	0	-18
O=C(Nc1ccccc1C(=O)NCCCn1ccnc1)c1ccccc1
 : 5	-0.4	20501*	3	0	-3	-41
CC(C)(C)c1ccc(C2=CSC3=NCCN23)cc1
 : -5	6.0	4004	8	5	6	-23
Cc1nn(-c2ccccc2)c(N2CCCC2)c1/C=N/n1cnc2scc(-c3ccccc3)c2c1=O
 : -3	.	2959	.	.	.	-2
CC(C)NC(=O)CSc1nnc(-c2ccc(S(=O)(=O)N3CCCC3)cc2)n1CC1CCCO1 (stereo not drawn)
 : -1	1.7	3214	2	.	.	-6
COc1ccccc1C1Nc2ccccc2NC2=C1C(=O)CC(C)(C)C2 (stereo not drawn)
 : -5	-4.2	3659	-1	-1	4	-11
O=C(Cn1c(=O)n(CC(=O)N2CCCCC2)c(=O)c2sccc21)NCc1ccccc1
 : 8	2.8	5127	6	-2	1	-26
CCOc1cc(NC(=O)c2ccco2)c(OCC)cc1NC(=O)Cc1ccc(OC)c(OC)c1
 : -2	-0.5	20919*	15	2	-2	-20

(more compounds)
The line under a structure holds: BJeLR viability	Sa RN4220 lethal	Autofluor counter	ugtP null kill	Mtb hypoxia rep	Mtb hypoxia rep growth	PrP 5UTR inh
COc1ccccc1CNc1ccc(N2CCCCC2)cc1
 : -3	-4.4	5373	-7	-7	-8	-40
CCOc1ccc(CN(C)C(=O)Cc2c[nH]c3ccccc23)cc1
 : -2	0.6	4027	-1	7	12	-22
CCc1noc(C)c1C(=O)Nc1cc(S(=O)(=O)N2CCOCC2)ccc1OC(C)C
 : -11	4.7	6105	1	3	-5	-9
COc1cc(C=Nn2nnnc2N)cc(Cl)c1OC
 : .	0.6	.	0	9	7	.
CSC1=N/C(=C\c2ccc(F)cc2)C(=O)S1
 : 5	4.1	2623	-11	.	.	-20
CCOC(=O)CSc1nc(COc2ccccc2)nc2ccccc12
 : -4	4.1	4112	6	7	17	-4
Cn1cc(S(=O)(=O)Nc2cccc(F)c2)c(=O)n(C)c1=O
 : 0	-15	6938	-9	3	2	10
CCCC[C@H]1COCCS(=O)(=O)N1Cc1ccc(Br)cc1
 : 4	.	4370	.	.	.	-18
C(=N\N1CCOCC1)/c1nc(-c2ccccc2)n2ccccc12
 : -5	.	4879	.	.	.	-20
CCCCSc1nc2sc3c(c2c(=O)[nH]1)CC(C)(CC)OC3 (stereo not drawn)
 : -1	-1.6	3595	3	6	-3	-24
CCCCn1c(O)c(C(C)=Nc2cccc(C(=O)O)c2)c(=O)[nH]c1=O
 : 6	-3.0	21668*	-4	-11	2	-16
C/C(CCC1CC(C)OC1=O)=N/Nc1nc(-c2ccccc2)cs1 (stereo not drawn)
 : -15	.	1853	.	.	.	-9
O=C(Nc1cccc(NC(=O)c2cccs2)c1)c1ccc2c(c1)OCCO2
 : -10	8.3	2577	-1	-1	-4	-27
CN1C(=O)OC(C)(CCc2ccccc2)C1(C)O (stereo not drawn)
 : 5	0.9	?	1	.	.	-5
COc1ccc(NC(=O)CN(C)C(C)C(=O)N2CCCCC2)cc1 (stereo not drawn)
 : -6	-0.8	21556*	-3	0	2	-18

Record cards, from the list above. Screens in order: BJeLR viability	Sa RN4220 lethal	Autofluor counter	ugtP null kill	Mtb hypoxia rep	Mtb hypoxia rep growth	PrP 5UTR inh
Record of `C(=N\N1CCOCC1)/c1nc(-c2ccccc2)n2ccccc12` → -5	.	4879	.	.	.	-20
Record of `CSC1=N/C(=C\c2ccc(F)cc2)C(=O)S1` → 5	4.1	2623	-11	.	.	-20
Record of `CCCCn1c(O)c(C(C)=Nc2cccc(C(=O)O)c2)c(=O)[nH]c1=O` → 6	-3.0	21668*	-4	-11	2	-16
Record of `CCOC(=O)CSc1nc(COc2ccccc2)nc2ccccc12` → -4	4.1	4112	6	7	17	-4

Screening data as filed in PubChem.
